Screening results as filed in PubChem.
Ecoli growth = E. coli growth inhibition, primary screen, OD600 | Escherichia coli growth, 23 h; hits give low values | OD600 absorbance (test concentration not listed) | actives 0.21% (n = 330,000) | AID 1053175, 2014;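 active means OD600 absorbance below the run mean of sample wells minus 3.6 SD, in any replicate, cut at about 0.56 in these data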;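 further: stock transfer was 300 nL into about 60 µL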
Bfl-1 A1 inh = caspase 3/7 activation in MEF A1-2A-BIM cells, primary screen, A1 inhibitor project, cell-based, luminescence, HTS; Caspase-Glo 3/7 luminescence, 3 h; percent of clofoctol response, vehicle zero; caspase activation, % (no concentration beside the values); actives 0.066% (n = 330,000); AID 2462, 2010;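 active means over half of replicate activation scores above 10%, or exactly half above 10 with the replicate mean above 10; inconclusive means replicate mean below 10 yet half the replicates above 10; inactive means over half of replicates below 10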;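 further: wells of about 30 µL received 50 nL stock; many hits fall short of the cut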
Ecoli rRNA inh = reduced GFP signal of wild-type E. coli, primary screen, bacterial rRNA inhibitor project, GFP/RFP fluorescence, OD600, single point | E. coli WT GFP vs humanized-ribosome RFP mutants, 24 h; hits give low values; DMSO median 0, no signal -100 | GFP signal change (wild-type ribosome), % (concentration not given with the values) | actives 1.6% (n = 350,000);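 active means significant combined selectivity score with lowered wild-type GFP, culture density cut under 30%, mutant RFP and density less affected; inactive means any of these conditions unmet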; further: one replicate is shown; some compounds called inactive have numbers as strong as hits
T cruzi inh = inhibitors of intracellular T. cruzi growth, primary screen, luminescence, NIH3T3 host cells. T. cruzi beta-gal in NIH3T3, 90 h. inhibition, % (test concentration not listed). actives 1.4% (n = 300,000);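 active means mean inhibition across valid replicates above about 55%, limit read from the data; inconclusive means mean below that limit but half or more replicates reach it; inactive means mean below it, under half of replicates reach it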;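 further: signal also drops with host cell toxicity which is not excluded here; 0% = plate median of DMSO wells and 100% = zero luminescence signal; higher percent means less beta-gal luminescence so fewer parasites; stock transfer was 50 nL into about 50 µL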
Beta apoptosis = inhibitors of cytokine-induced beta cell apoptosis, primary screen, luminescence; INS-1E cytokine-induced death, ATP luminescence, 48 h; percent of positive-control rescue, neutral wells zero; protection from apoptosis, % (no concentration beside the values); actives 0.8% (n = 300,000); AID 435005, 2010;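 active means all replicates at 75% or more, or half of them and the mean; inconclusive means half reach 75% but not the mean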;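 further: 0% = cytokine-treated negative control wells and 100% = positive control rescue; higher means more ATP so stronger rescue from cytokine killing; wells of about 40 µL received 100 nL stock; the first replicate is given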
UCH37 DUB inh = inhibitors of human UCH37 deubiquitinase, primary screen, biochemical, Ub-AMC cleavage, fluorescence | purified proteasome/UCH37 | actives 0.33% (n = 330,000) | inhibition, % (no concentration beside the values);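 active means mean of two replicates above 20%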;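 further: 0% = compound-free wells with enzyme and 100% = wells lacking proteasome; stock transfer was 100 nL into about 20 µL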
Target sequence (Q9Y5K5 whole entry, looked up): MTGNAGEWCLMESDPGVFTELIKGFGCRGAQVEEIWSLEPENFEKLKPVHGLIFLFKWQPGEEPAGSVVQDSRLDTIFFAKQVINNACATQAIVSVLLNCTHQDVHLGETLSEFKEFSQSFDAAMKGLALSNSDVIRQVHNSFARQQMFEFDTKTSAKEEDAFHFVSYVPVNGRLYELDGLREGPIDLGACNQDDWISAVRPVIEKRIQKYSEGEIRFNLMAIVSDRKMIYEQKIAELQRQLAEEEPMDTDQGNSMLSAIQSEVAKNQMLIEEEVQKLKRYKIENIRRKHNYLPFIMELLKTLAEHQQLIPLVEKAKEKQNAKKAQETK
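Schedule: 30 min plus 25 min, room temperature / Material: human UCH37 within purified proteasomes / Technique: AMC fluorescence intensity at 355/460 nm / Buffer or medium: pH 7.4 Tris-HCl (50 mM) with ovalbumin, ATP-MgCl2, DTT / Controls: wells without proteasome as full block, compound-free enzyme plus substrate as uninhibited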
AF4-AF9 inh = inhibitors of AF4 peptide binding to AF9, primary screen, biochemical, AlphaScreen, biotin-AF4 peptide, FLAG-AF9, single point; actives 0.47% (n = 350,000); AID 651704, 2012; inhibition, % at 10 µM; Protein AF-9 (Homo sapiens), P42568;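 active means every replicate reaching a set inhibition limit, whatever the replicate mean, cut at about 25% in these data; inconclusive means mean inhibition reaches that limit but some replicates miss it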;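 further: 0% = plate neutral control median and 100% = total signal loss; the record names both 10 and 1 µM as test concentration; the first replicate is given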
Target sequence (P42568 whole entry, looked up): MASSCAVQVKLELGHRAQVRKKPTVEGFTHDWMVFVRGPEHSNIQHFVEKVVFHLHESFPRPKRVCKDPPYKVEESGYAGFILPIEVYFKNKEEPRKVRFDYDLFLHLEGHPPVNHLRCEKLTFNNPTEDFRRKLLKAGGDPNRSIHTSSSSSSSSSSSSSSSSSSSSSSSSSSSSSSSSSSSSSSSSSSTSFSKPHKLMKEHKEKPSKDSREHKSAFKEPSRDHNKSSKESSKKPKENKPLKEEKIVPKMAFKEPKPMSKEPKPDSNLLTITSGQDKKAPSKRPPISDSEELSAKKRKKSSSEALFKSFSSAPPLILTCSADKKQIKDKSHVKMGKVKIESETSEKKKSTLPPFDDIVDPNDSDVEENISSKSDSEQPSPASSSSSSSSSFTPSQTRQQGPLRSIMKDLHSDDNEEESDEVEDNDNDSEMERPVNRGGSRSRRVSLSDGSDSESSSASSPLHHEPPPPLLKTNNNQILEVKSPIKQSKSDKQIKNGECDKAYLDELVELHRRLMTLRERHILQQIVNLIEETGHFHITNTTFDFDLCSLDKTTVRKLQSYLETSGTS
FGF22 binding = binders of human FGF22 protein, primary screen, FGF22 synaptogenesis inhibitor project, biophysical, thermal shift, single point; recombinant FGF22 thermal shift, SYPRO orange fluorescence; percent of sucrose octasulfate shift, DMSO zero; calls only at 9.99 µM; actives 1.5% (n = 340,000); AID 651658, 2012;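 active means melting point raised past a set limit in the mean and every replicate; inconclusive means no clear call; three in four hits are not shown here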
Target sequence (Q9HCT0 whole entry, looked up): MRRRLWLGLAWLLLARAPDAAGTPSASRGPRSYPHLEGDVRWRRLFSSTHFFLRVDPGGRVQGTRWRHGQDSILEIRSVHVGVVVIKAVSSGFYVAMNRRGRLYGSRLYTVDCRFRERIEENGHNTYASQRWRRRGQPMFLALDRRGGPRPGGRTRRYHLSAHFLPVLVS
Ecoli rRNA inh OD600 = second read-out of Ecoli rRNA inh, no call of its own (marks repeat the call); OD600 change, %; measured here: OD600 growth;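 optical density of the mix in the first replicate; 0 = DMSO median and -100 = no signal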
Ecoli rRNA inh RFP = second read-out of Ecoli rRNA inh, no call of its own (marks repeat the call); RFP signal change, %; measured here: RFP humanized mutant strains;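 first replicate; 0 = DMSO median and -100 = no signal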
* marks the source's active call; other numbers are inactive results; i = inactive; u = inconclusive; x = not tested or not shown; & = joins results of further samples. This is a subset. The share of hits here may be higher or lower than overall.

SMILES	Ecoli growth	Bfl-1 A1 inh	Ecoli rRNA inh	Ecoli rRNA inh OD600	Ecoli rRNA inh RFP	T cruzi inh	Beta apoptosis	UCH37 DUB inh	AF4-AF9 inh	FGF22 binding
CN(C(=O)COC(=O)Cc1ccc(Cl)cc1)C1CCCCC1	0.68	-0.7	-8	-4	-1.6	x	-8	0.4	-8.8	i
CCc1ccc(NS(=O)(=O)c2cccs2)cc1	0.65	1.1	-4	-10	-4.5	11	1	1.0	-5.2	i
COc1ccc(-c2cc(C(F)F)n3ncc(C(=O)N4CCCc5ccccc54)c3n2)cc1	0.73	-0.5	13	0	-0.9	-13	-1	-1.8	-1.7	i
O=C1c2ccccc2C(=O)N1c1ncccn1	0.67	-0.5	x	x	x	0	-2	5.8	x	x
Cc1cc(C)c(C)c(S(=O)(=O)N2CCC(C(=O)N(C)Cc3nc4ccccc4c(=O)[nH]3)CC2)c1C	0.66	x	-29	-51	6.2	x	x	1.9	2.4	i
CC(=O)N[C@H](Cc1c[nH]c2ccccc12)C(=O)O	x	0.0	3	10	0.3	-5	-15	3.4	-2.2	i
COc1ccccc1NC(=O)Cn1c(CCC(=O)O)ccc1-c1ccc(C)cc1	0.72	-0.1	-4	-6	-2.5	0	-1	0.1	-11	i
O=C(CC(c1ccccc1)c1ccccc1)NCC(O)c1ccc([N+](=O)[O-])cc1 (centres undefined)	0.65	0.7	-15	3	9.9	-3	-8	2.6	0.3	i
Cc1ccc(/C=C(\C#N)C(=O)NCc2ccco2)o1	0.72	0.3	9	7	0.5	-3	2	3.8	0.5	i
Oc1ccc(-c2onc(C(F)(F)F)c2-c2cscn2)c(O)c1	0.75	0.3	x	x	x	-7	6	-2.9	x	x

Part of the list above in order of count of non-hydrogen atoms, high to low:
SMILES	Ecoli growth	Bfl-1 A1 inh	Ecoli rRNA inh	Ecoli rRNA inh OD600	Ecoli rRNA inh RFP	T cruzi inh	Beta apoptosis	UCH37 DUB inh	AF4-AF9 inh	FGF22 binding
Cc1cc(C)c(C)c(S(=O)(=O)N2CCC(C(=O)N(C)Cc3nc4ccccc4c(=O)[nH]3)CC2)c1C	0.66	x	-29	-51	6.2	x	x	1.9	2.4	i
COc1ccc(-c2cc(C(F)F)n3ncc(C(=O)N4CCCc5ccccc54)c3n2)cc1	0.73	-0.5	13	0	-0.9	-13	-1	-1.8	-1.7	i
COc1ccccc1NC(=O)Cn1c(CCC(=O)O)ccc1-c1ccc(C)cc1	0.72	-0.1	-4	-6	-2.5	0	-1	0.1	-11	i
CN(C(=O)COC(=O)Cc1ccc(Cl)cc1)C1CCCCC1	0.68	-0.7	-8	-4	-1.6	x	-8	0.4	-8.8	i
Cc1ccc(/C=C(\C#N)C(=O)NCc2ccco2)o1	0.72	0.3	9	7	0.5	-3	2	3.8	0.5	i
CC(=O)N[C@H](Cc1c[nH]c2ccccc12)C(=O)O	x	0.0	3	10	0.3	-5	-15	3.4	-2.2	i
O=C1c2ccccc2C(=O)N1c1ncccn1	0.67	-0.5	x	x	x	0	-2	5.8	x	x

2 of the compounds above, field by field.
> CCc1ccc(NS(=O)(=O)c2cccs2)cc1
  Ecoli growth: 0.65
  Bfl-1 A1 inh: 1.1
  Ecoli rRNA inh: -4
  Ecoli rRNA inh OD600: -10
  Ecoli rRNA inh RFP: -4.5
  T cruzi inh: 11
  Beta apoptosis: 1
  UCH37 DUB inh: 1.0
  AF4-AF9 inh: -5.2
  FGF22 binding: i

> CN(C(=O)COC(=O)Cc1ccc(Cl)cc1)C1CCCCC1
  Ecoli growth: 0.68
  Bfl-1 A1 inh: -0.7
  Ecoli rRNA inh: -8
  Ecoli rRNA inh OD600: -4
  Ecoli rRNA inh RFP: -1.6
  T cruzi inh: x
  Beta apoptosis: -8
  UCH37 DUB inh: 0.4
  AF4-AF9 inh: -8.8
  FGF22 binding: i

Continuation.
SMILES	Ecoli growth	Bfl-1 A1 inh	Ecoli rRNA inh	Ecoli rRNA inh OD600	Ecoli rRNA inh RFP	T cruzi inh	Beta apoptosis	UCH37 DUB inh	AF4-AF9 inh	FGF22 binding
Cn1cnnc1SCC(=O)Nc1sc2c(c1C#N)CCCCC2	0.67	-0.4	-15	-22	2.2	0	-5	2.9	x	x
CCOc1ccc(NC(=O)c2cccc(OC(=S)N3CCC(C)CC3)c2)cc1	0.69	-1.1	x	x	x	22	x	2.4	x	x
CCOC(=O)c1c(C)[nH]c(C(=O)CSc2ccccc2)c1C	0.77	-4.0	x	x	x	8	1	-3.2	x	x
Cc1ccc(-n2c(C)c(C)c3c(NCCO)ncnc32)cc1	0.6	0.3	-1	-12	-3.5	-2	-10	3.0	6.2	i
CCCN=C(Nc1ccc(Cl)cc1)c1cccnc1	0.71	1.0	x	x	x	3	3	0.9	x	x
O=C(NCc1cccnc1)c1cnc2n(c1=O)CCS2	0.65	0.7	x	x	x	-14	-10	0.2	x	x
Cc1cc(=O)[nH]c(SCC(=O)C23CC4CC(CC(C4)C2)C3)c1C#N	0.69	-0.7	x	x	x	-6	-9	6.2	x	x
CCNC(=S)N1CCC(c2nc3cc(C)c(C)cc3[nH]2)CC1	0.67	0.0	-2	-2	1.9	3	3	5.7	-0.1	i
Cc1cc(SC2CCOC2=O)nc2ccccc12 (centres undefined)	0.69	1.3	4	3	-0.3	-14	1	4.0	-1.8	i
COc1cc(S(=O)(=O)NCc2ccncc2)c(OC)cc1C	0.7	0.6	8	8	-0.4	-2	1	0.3	u	i
O=C(O)c1cccc(N2CCCC2=O)c1	0.66	0.9	x	x	x	0	-5	1.4	x	x
Cc1cc(=O)[nH]c(SCC(=O)Nc2ccc(S(=O)(=O)N3CCOCC3)cc2)n1	0.69	-0.2	x	x	x	-14	-1	1.8	x	x
CCc1ccc(C(=O)CN2C(=O)NC3(CCc4ccccc43)C2=O)cc1 (centres undefined)	0.69	0.2	9	-33	-5.9	x	-9	2.4	-2.8	i
C=CCn1c(SCC(=O)Nc2nnc(C)s2)nnc1C1CC1	0.7	0.2	-3	2	-0.6	-8	-1	1.3	-1.3	i
Cc1ccc(NC(=O)COC(=O)c2csc3c2CCC(C)C3)cc1S(=O)(=O)N1CCCCC1 (centres undefined)	0.68	-0.3	-3	-6	-2.8	-17	-2	5.3	-7.1	i
CC(C)C(=O)N1CCN(CCN=CC2=C(O)CC(c3ccco3)CC2=O)CC1 (centres undefined)	0.69&0.66	1.0	x	x	x	-10	-10	3.6&3.4	0.7	i
CN(Cc1nc(-c2cnccn2)no1)Cc1cccc2ccccc12	0.68	0.7	4	5	1.1	-7	-5	5.2	7.7	i
COc1ccccc1C(=O)Nc1ccc(S(=O)(=O)N(C)c2ccccc2)cc1	0.73	-0.1	-15	-15	-1.6	11	x	4.0	-0.8	i
CC(=O)Nc1ccc(S(=O)(=O)N(c2cccnc2)S(=O)(=O)c2ccc(NC(C)=O)cc2)cc1	0.73	0.7	x	x	x	0	0	6.3	x	x
CCN1C(=O)c2cccc3c(S(=O)(=O)NCc4ccccn4)ccc1c23	0.76	1.2	x	x	x	-23	2	-249	x	x
Cc1ccc2nsnc2c1NC(=S)NC(=O)c1ccco1	0.69	0.2	x	x	x	2	-5	3.7	x	x
COC(=O)C(Cc1ccccc1)P(=O)(c1ccccc1)c1ccccc1 (centres undefined)	0.66	0.3	3	-19	-0.2	6	-5	1.9	0.3	i
COc1cc(CCC(=O)OCC(=O)c2ccc[nH]2)cc(OC)c1OC	0.62	-1.0	4	1	-2.6	x	1	5.0	-0.9	i
CC(C1CC2CCC1C2)n1c(-c2ccco2)n[nH]c1=S (centres undefined)	0.66	-0.2	-48	-62	-2.5	-13	-2	1.4	-3.4	i
Cc1ccc(NS(=O)(=O)c2ccccc2)c([N+](=O)[O-])c1	0.67	x	-10	-15	4.4	x	x	2.5	-2.1	i
COc1cccc(CNc2nc3nc(C)c(Cl)c(C)n3n2)c1	0.69	0.2	x	x	x	0	-1	-33	x	x
CC(C)CNC(=O)[C@H]1N2C(=O)c3ccccc3C2SC1(C)C (some centres undefined)	0.63	0.4	16	11	2.2	-10	2	1.1	2.0	i
COc1ccc2c(c1)c(=O)c(C(=O)c1ccccc1)cn2Cc1ccccc1	0.78	-1.1	2	1	-0.9	6	5	5.6	-0.7	i
C=CCNC(=S)NNc1nc(Nc2ccccc2)nc(N2CCCCC2)n1	0.69	0.4	-42	-64	12	8	5	4.2	7.9	i
CC(=NNC(=O)c1ccncc1)c1ccc(O)cc1O	0.66	x	-16	-2	-4.7	x	x	6.3	0.0	i
O=C(N/C(=C/c1cccc([N+](=O)[O-])c1)C(=O)N1CCOCC1)c1ccc(Br)cc1	0.67	-0.7	2	27	-1.6	-14	2	3.8	0.9	i
Cn1cc([C@@H]2C[C@H]3CN(Cc4cccc(Cl)c4)C(=O)[C@]34CCCN24)c(-c2ccccc2)n1	0.66	1.2	-54	-73	-15	13	3	2.7	6.7	x
COc1ccc(N2C(=O)CC(Sc3nccc(C)n3)C2=O)cc1 (centres undefined)	0.71	-0.4	x	x	x	-7	-3	0.7	x	x
CCN(CC)C(=O)CN1C(=O)/C(=C/c2ccccc2)SC1=S	0.72	0.4	6	8	-4.9	49	-60	6.8	-28	i
COC(=O)c1cc(NS(=O)(=O)c2ccc(N3CCOCC3)c(NC(C)=O)c2)cc(C(=O)OC)c1	0.65	-1.0	6	8	6.3	-2	-7	-0.2	4.2	i
COc1cc2c(cc1OC)/C(=C/C(=O)c1ccccc1)NCC2	0.68	0.5	-2	-13	3.6	-1	-3	2.7	7.9	i
COc1ccc(-c2nnn(CC(=O)NCCc3ccc(OC)c(OC)c3)n2)cc1	0.72	-0.3	2	9	6.7	7	-4	2.0	-9.3	i
CC1CN(C(=O)CN2C(=O)c3ccccc3C2=O)CC(C)O1 (centres undefined)	0.76	0.8	x	x	x	18	-9	1.5	x	x
CN(C)NC1=CC(=[N+]2CCCC2)CC(C)(C)C1	0.73	0.1	1	5	-1.8	3	-1	0.2	-13	i
O=C(/C=C/c1ccccc1)Nc1nc(-c2ccncc2)cs1	0.73	-0.4	13	27	9.2	66*	-5	0.6	1.0	i
CSc1ccc(S(=O)(=O)N2CC(=O)Nc3ccccc32)cc1	0.63	-0.6	-36	-35	-5.7	-7	-4	1.0	-1.4	i
CCOC(=O)Cn1cc(C(=O)C2CC2)c2ccccc21	0.73	0.0	x	x	x	-11	-3	1.6	x	x
Cc1ccc(Cc2c(C)c(C#N)c3[nH]c4ccccc4n3c2=O)cc1	0.7	0.6	-26	-25	8.9	13	77*	-21	-3.3	i
O=C(O)c1c(Cl)nc2ccccn12	0.67	-1.2	x	x	x	-5	-3	-1.2	-3.3	x
